From PubChem
Calb biofilm kill – clotrimazole potentiators killing C. albicans biofilm, primary screen, 4-compound mixtures | C. albicans biofilm persisters + clotrimazole, fluorescence viability; primary screen in compound mixtures of four per well | inhibition, % at 7.6 µM | 120,000 compounds, 0.02% hits | AID 1242, 2008;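 active = inhibition above 30.3% in the primary screen of four-compound pools, then above 30% when the compound was retested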;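 also: compounds exposed to preformed 24 h biofilms for 48 h; the number belongs to the whole pool; some results filed as inactive read as strong as hits; inactives centre near 12; 0% = biofilm with clotrimazole alone and 100% = kill control; retested singly at about 60 µM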
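Test system: C. albicans biofilms. Buffer or medium: RPMI/MOPS medium, pH 7.0. Timing: 48 h compound exposure at 37 °C. Technique: Alamar Blue fluorescence. Evaluation: percent inhibition of biofilm viability.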
Starred values were filed as active, the others as inactive.

| smiles | Calb biofilm kill |
| --- | --- |
| Cn1ccsc1=NC(=O)c1ccc(Cl)cc1 | -6 |
| Cc1ccc(C2=NOC(=O)/C2=C\c2ccc(C)o2)cc1 | 31 |
| O=C(Nc1cccc(S(=O)(=O)C(F)F)c1)c1ccc(S(=O)(=O)N2CCCC2)cc1 | 8 |
| Cc1nc(NC(=O)CSc2cc(C)c3ccccc3n2)c(Cl)cc1Cl | 13 |
| CC(C)N(CC#CCC(O)(c1ccccc1)C1CCCC1)CCO (stereo not drawn) | 10 |
| COc1ccc(C(C(=O)NC2CCCCC2)N(C(=O)Cc2c[nH]c3ccccc23)c2ccccc2C)cc1OC (stereo not drawn) | -4 |
| COc1cc(/C=N/n2c(-c3n[nH]c4c3CCC4)n[nH]c2=S)cc(OC)c1O | 15 |
| O=C(/C=C/NNC(=O)c1ccc(Cl)cc1)c1ccccc1 | 15 |
| COc1ccc(S(=O)(=O)Nc2nccs2)cc1OC | 15 |
| CCOC(=O)c1[nH]c2ccc(OCC)cc2c1CCCN1C(=O)c2ccccc2C1=O | 8 |

Grouped by structure: those above containing sulfur
| smiles | Calb biofilm kill |
| --- | --- |
| Cn1ccsc1=NC(=O)c1ccc(Cl)cc1 | -6 |
| O=C(Nc1cccc(S(=O)(=O)C(F)F)c1)c1ccc(S(=O)(=O)N2CCCC2)cc1 | 8 |
| Cc1nc(NC(=O)CSc2cc(C)c3ccccc3n2)c(Cl)cc1Cl | 13 |
| COc1cc(/C=N/n2c(-c3n[nH]c4c3CCC4)n[nH]c2=S)cc(OC)c1O | 15 |
| COc1ccc(S(=O)(=O)Nc2nccs2)cc1OC | 15 |

An excerpt of these results, as labelled records:
COc1cc(/C=N/n2c(-c3n[nH]c4c3CCC4)n[nH]c2=S)cc(OC)c1O
  Calb biofilm kill: 15
CC(C)N(CC#CCC(O)(c1ccccc1)C1CCCC1)CCO (stereo not drawn)
  Calb biofilm kill: 10

Later entries
| smiles | Calb biofilm kill |
| --- | --- |
| COc1cc(-c2nnc(-c3cc(OC)c(OC)c(OC)c3)o2)cc(OC)c1OC | 10 |
| C=CCn1c(C(C)NC(=O)c2cccs2)n[nH]c1=S (stereo not drawn) | 17 |
| Cc1ccc(S(=O)(=O)N(C)C)cc1NC(=O)COC(=O)c1ccc2c(c1)OCCO2 | 16 |
| Cc1c(Cl)c([N+](=O)[O-])nn1CCCC(=O)NC1CCCCC1 | 25 |
| Cc1nc2n[nH]c(N)c2c2c1CCCC2 | 19 |
| CN(C(=O)c1ccc2c(c1)CCO2)C(C)(C)C | 17 |
| Cn1c(=O)[nH]c2c(Cl)nccc21 | 18 |
| Cn1c(-c2ccc([N+](=O)[O-])cc2)nc2ccccc21 | -32 |
| CN1Cc2ccccc2N(CC(=O)NCc2ccccc2)C1=O | 16 |
| Cc1ccc2nc(Cn3cc(C(F)(F)F)ccc3=O)cc(=O)n2c1 | 9 |

(more compounds)
| smiles | Calb biofilm kill |
| --- | --- |
| COc1ccc(N2CCN(C(=O)c3ccc(CSc4ccccc4)cc3)CC2)cc1 | -2 |
| Cc1ccc(OCC(=O)OCCN2C(=O)c3ccccc3C2=O)cc1C | 18 |
| CCCCNC(=O)C1c2ccccc2Oc2ccccc21 | -6 |
| CCN(CC)c1ccc(S(=O)(=O)N(CC)CC)cc1NC(=O)c1cccnc1 | -8 |
| CCOC(=O)N1CCC(=NNC(=O)COc2ccc(OC)cc2)CC1 | -9 |
| Cc1cc(-n2cccn2)ccc1CN1CCN(CC(C)C)C(CCO)C1 (stereo not drawn) | 8 |
| CCCNC(=O)NC(=O)COC(=O)c1cccc(NS(=O)(=O)c2ccc(F)c(F)c2)c1 | 13 |
| Cc1ccc(Oc2ccc(C(=O)NCc3ccncc3)cc2)cc1 | 14 |
| Cc1ccc(NCc2nnc(SCC(=O)O)n2-c2ccc(C)cc2)cc1 | 10 |
| CC(C)=CCN1CCN(Cc2ccc(Oc3ncccn3)cc2)CC1CCO (stereo not drawn) | 16 |

Following part:
| smiles | Calb biofilm kill |
| --- | --- |
| Cc1c(Cl)cccc1NC(=O)CNc1ccccc1F | -2 |
| N/C(=N\c1nc2ccccc2o1)NC(=O)c1ccccc1Br | 22 |
| COc1ccc(/C=C/C(=O)OCC(=O)NC2CCCC(C)C2C)cc1S(=O)(=O)N1CCOCC1 (stereo not drawn) | 13 |
| CCN(CC)S(=O)(=O)c1cccc(-c2cn3cccnc3n2)c1 | 12 |
| COc1ccccc1NC(=O)Cc1noc(CSc2n[nH]c(N)n2)n1 | 18 |
| Cc1cccc(NC(=S)N2CCC(N(C)CC3CCCO3)CC2)c1 (stereo not drawn) | 20 |
| O=C(O)c1cccc([N+](=O)[O-])c1C(=O)Nc1nc2ccccc2s1 | 4 |
| O=C(NC(=S)Nc1cccc(C(F)(F)F)c1)c1ccc2nonc2c1 | 17 |
| CCC(C)(C)NC(=O)C1c2ccccc2Oc2ccccc21 | 10 |
| CCCCOc1ccc(Br)cc1/C(C)=N/NC1=NCCN1 | 15 |

Following part
| smiles | Calb biofilm kill |
| --- | --- |
| O=C(Nc1cc(S(=O)(=O)N2CCOCC2)ccc1N1CCOCC1)c1cnccn1 | -3 |
| O=C(O)c1ccc(N/N=C/c2cn(Cc3ccc(F)cc3)c3ccccc23)cc1 | 30 |
| CC1(C)COC(c2ccc(F)c([N+](=O)[O-])c2)=N1 | 11 |
| CC(=O)Nc1c(O)nc(SCc2ccccc2C#N)[nH]c1=O | 9 |
| CCCn1c(C)cc(C(=O)COc2ccc(-c3nnco3)cc2)c1C | 13 |
| O=C(COC(=O)/C=C/c1ccco1)NCCc1ccccc1 | 5 |
| CC(=O)Nc1ccc(S(=O)(=O)N/N=C/c2ccc(C)s2)cc1 | 14 |
| O=C(CSc1ccc2ccccc2c1)N1CCN(c2ccc(O)cc2)CC1 | 36 |
| CC(C)Nc1nc(Cl)nc(NN(C)c2nc(N(C)C)nc(N(C)C)n2)n1 | 18 |
| COc1cc(OC)cc(C(=O)N[C@H](C(=O)OCC(=O)Nc2ccc(C(C)C)cc2)C(C)C)c1 | 12 |

More structures:
| smiles | Calb biofilm kill |
| --- | --- |
| COC(=O)c1cccc(NC(=O)Cc2nc(-c3ccccc3)sc2-c2ccc(C)cc2)c1 | 1 |
| COC(=O)c1cnn(-c2ccccc2)c1/C=N/NC(=S)Nc1ccccc1 | 17 |
| Cc1ccsc1/C=N/NC(=O)C(=O)NCC(C)C | 20 |
| COCCCNCCCCOc1ccccc1-c1ccccc1 | 21 |
| CCCCN(CC)C(=S)Nc1ccc2nc(N3CCN(C)CC3)cc(C)c2c1 | 16 |
| Cc1c(C(=O)N2CCOCC2)sc(NC(=O)Cc2ccccc2)c1C#N | 54 |
| Cc1ccc(NC(=O)Cn2c(=O)c(C)nc3ccccc32)cc1 | 12 |
| COc1ccc([N+](=O)[O-])cc1NC(=O)CN(C)S(=O)(=O)c1ccccc1 | 15 |
| NS(=O)(=O)c1ccc(NC(=O)COC(=O)c2cc3ccccc3cc2O)cc1 | 18 |
| COc1ccc(-c2csc3ncnc(Cl)c23)cc1 | 12 |

Continued.
smiles	Calb biofilm kill
O=C1c2ccccc2CN1CCSC(=S)N1CCSCC1	12
COc1cccc(C(C(=O)NC(C)(C)C)N(Cc2ccco2)C(=O)CCC(=O)Nc2cc(C)on2)c1OC (stereo not drawn)	9
CS(=O)(=O)N(CC(=O)Nc1ccccc1-c1ccccc1)c1ccc(F)cc1	5
COc1ccc(C(=O)N2CCC(C(=O)Nc3ccc(C)cc3)CC2)cc1	16
CCC(=O)Nc1ccc(C(=O)Nc2ccc(OC)cc2[N+](=O)[O-])cc1	10
Cc1ccc(NC(=O)c2ccccc2-c2ccc(C(F)(F)F)cc2)cc1S(=O)(=O)N1CCOCC1	16
COc1ccc(NC(=O)c2ccc(C)o2)c([N+](=O)[O-])c1	13
CCOc1ccc(C(=O)O)cn1	18
O=C(c1ccc2c3n(nc2c1)-c1ccc(Cl)cc1CO3)N1CCCCC1	23
Cc1cccc(-n2cc(CN3CCN(c4ccccn4)CC3)c(-c3cccc(F)c3)n2)c1	13
CN1C(=O)/C(=C\c2cc(Br)cs2)c2ccccc21	6
O=C1N/C(=C/c2cccn2-c2ccccc2)C(=O)N1Cc1ccc(F)cc1	12
CC1(C)OC(c2ccccc2)=C/C(=C\C=N\NC(=O)c2ccncc2)O1	15
Cc1cccc(OCC(=O)NCC(=O)N/N=C/c2ccc(O)cc2O)c1	24
CC1CC1c1ccc(/C=C(\C#N)C(=O)Nc2cc(Cl)ccc2Cl)o1 (stereo not drawn)	5

(further entries)
smiles	Calb biofilm kill
CC(=O)c1ccc2c(c1)OCCOCCOCCO2	6
CCC(C)NC(=O)CCSCCC(=O)NC(C)CC (stereo not drawn)	5
CC(OC(=O)C(C)N1C(=O)C2C3C=CC(C4CC34)C2C1=O)C(=O)c1ccccc1 (stereo not drawn)	17
CCNC(=S)N(CCc1cccc(C)c1)Cc1cc2cc(OC)c(OC)cc2[nH]c1=O	8
Clc1ccc(CONc2ncnc3nonc23)c(Cl)c1	22
CCN=C1S/C(=C\c2cn(CC)c3ccccc23)C(=O)N1CC	4
CSc1nnc2c(n1)c(C)nn2-c1cccc(C)c1	-4
O=[N+]([O-])c1ccc2c(c1)C=C1CCCCC1(N1CCCC1)O2 (stereo not drawn)	14
CCOc1ccc(C(=O)C[n+]2ccc(C(=O)NCc3ccccc3)cc2)cc1	6
CC1(C(=O)NC(=S)N(Cc2ccccc2)c2ccccn2)CC1(Cl)Cl (stereo not drawn)	20
CC1=C(n2nnc([N+](=O)[O-])n2)C(c2cccnc2)C(C#N)=C(N)O1 (stereo not drawn)	22
Cc1ccc(NC(=O)CSc2ncccn2)c([N+](=O)[O-])c1	8
CCOC(=O)c1nc(C)nc(Sc2n[nH]c(-c3cc(Cl)cc(Cl)c3)n2)c1C	12
CCOC(=O)N1CCN=C1SCc1ccc(C(F)(F)F)cc1	-2
CC(=O)N1CCC(=NNc2nc3ccccc3s2)CC1	24

New compounds follow:
smiles	Calb biofilm kill
COc1ccc(NCc2ccc([N+](=O)[O-])s2)c(OC)c1	10
COc1ccc(CNC(=O)COC(=O)c2ccccc2OCC(=O)Nc2ccc(SC(F)F)cc2)cc1	15
CCOc1ccc(NC(=S)N2CCC(C(N)=O)CC2)cc1	6
CCc1ccc(/C=N/Nc2ncnc3nc[nH]c23)cc1	29
Cc1nn(-c2ccc(Cl)cc2)c(NC(=O)C(C)C)c(-c2ccccc2)c1=O	25
CCN1C(=O)/C(=C\c2cccn2-c2ccc([N+](=O)[O-])cc2)N(CC)C1=S	8
COc1ccccc1Nc1ccc(C(=O)NCc2cccs2)cn1	15
CCn1c2ccccc2c2cc(/C=N/n3c(-c4cc(C)[nH]n4)n[nH]c3=S)ccc21	18
COc1ccc(S(=O)(=O)NNC(=O)c2cc3ccccc3o2)cc1	23
COc1ccc(/C(C)=N/NC(=O)c2ccc(NS(=O)(=O)c3cccs3)cc2)cc1	7
NS(=O)(=O)c1cccc(NC(=O)C2CC(=O)N(Cc3ccco3)C2)c1 (stereo not drawn)	4
Cc1ccc2oc(Nc3nc(-c4ccccc4)cc(=O)[nH]3)nc2c1	19
COc1ccc(OC)c(C2NC(=S)NC(C)=C2C(=O)Nc2ccccn2)c1 (stereo not drawn)	6
COc1cc(/C=N/NC(=O)COc2cc(C)cc(C)c2)ccc1OS(=O)(=O)c1ccc(C)cc1	12
Cc1cc(C)c(NC(=O)CN2CCC(NC(=O)NC3CCCCC3)CC2)c(C)c1	24

Remaining list, next part.
smiles	Calb biofilm kill
O=C(NNC(=O)c1nn(-c2ccc(F)cc2)ccc1=O)c1ccccc1Cl	44
O=C(OCC(=O)N1CCN(c2ccccc2)CC1)c1cccc(Cl)c1	6
Cc1csc(=Nc2cccnc2)n1CC1CCCCC1	16
CN1C(=O)[C@@H]2[C@@H]3C[C@@H]([C@H]4ON=C(c5ccccc5OCC#N)[C@@H]34)[C@@H]2C1=O	21
Cn1c(CC(=O)Nc2ccc(Cl)c(Cl)c2)nnc1SCC(=O)NCc1ccccc1	12
NS(=O)(=O)c1ccc(-c2ccc(/C=C3\C(=O)Nc4cc(Cl)ccc43)o2)cc1	5
CCOc1ccccc1C(=O)N[C@H](C(=O)OCc1cc([N+](=O)[O-])cc2c1OCOC2)C(C)C	18
Cc1cc(NC(=O)CCC(=O)N(CC(=O)NC2CCCC2)c2ccccc2)no1	8
Cc1ccc(OCCCC(=O)Nc2ccc(S(N)(=O)=O)cc2)cc1	9
O=[N+]([O-])c1ccc(NCCCO)c(C(F)(F)F)c1	7
CNC(=S)NNC(=O)c1ccc2c(c1)OCO2	13
CCCC(CCC(=O)Nc1cccc([N+](=O)[O-])c1)C(=O)O (stereo not drawn)	21
COc1ccc(-n2c(=O)c(NC(=O)c3ccccc3)c3n(c2=S)CCCCC3)cc1	25
c1nc(N2CCCC2)c2[nH]cnc2n1	1
O=C(Cn1cnc2c(nnn2Cc2ccc(F)cc2)c1=O)NCc1ccccc1	11

Next part, overlapping the part above by four compounds.
smiles	Calb biofilm kill
CCCC(CCC(=O)Nc1cccc([N+](=O)[O-])c1)C(=O)O (stereo not drawn)	21
COc1ccc(-n2c(=O)c(NC(=O)c3ccccc3)c3n(c2=S)CCCCC3)cc1	25
c1nc(N2CCCC2)c2[nH]cnc2n1	1
O=C(Cn1cnc2c(nnn2Cc2ccc(F)cc2)c1=O)NCc1ccccc1	11
COc1cc2ccccc2cc1C(=O)OCC(=O)NC1CCS(=O)(=O)C1 (stereo not drawn)	9
NS(=O)(=O)c1ccc(NC(=O)CSc2ncnc3ccccc23)cc1	9
CCOC(=O)N1C2C=C(C)[C@@H]2[C@@H]2CC(=O)N21 (stereo partly drawn)	13
O=C(Nc1ccc(Br)cc1)N1CCCCC1	11
O=C(Nc1ccc(Cc2ccncc2)cc1)c1cc(F)c(F)cc1Cl	19
O=C(O)/C=C/C(=O)NNc1ccc([N+](=O)[O-])cc1	22
CC(=O)Nc1cccc(OC(=O)COc2ccc(Br)cc2)c1	9
Cc1ccccc1NC(=S)N1CCCC(c2nc3ccccc3[nH]2)C1 (stereo not drawn)	14

Some of the compounds tested. The share of hits here may be higher or lower than overall.
